Screening results (PubChem)
T cruzi repl: inhibitors of intracellular T. cruzi growth, primary screen, luminescence, NIH3T3 host cells; T. cruzi beta-gal in NIH3T3, 90 h; inhibition, % (no concentration beside the values); actives 1.4% (n = 300,000);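 active = mean inhibition across valid replicates above about 55%, limit read from the data; inconclusive = mean below that limit but half or more replicates reach it; inactive = mean below it, under half of replicates reach it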;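 note: signal also drops with host cell toxicity which is not excluded here; 0% = plate median of DMSO wells and 100% = zero luminescence signal; higher percent means less beta-gal luminescence so fewer parasites; stock transfer was 50 nL into about 50 µL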
Ecoli rRNA inh: reduced GFP signal of wild-type E. coli, primary screen, bacterial rRNA inhibitor project, GFP/RFP fluorescence, OD600, single point. E. coli WT GFP vs humanized-ribosome RFP mutants, 24 h; active compounds read low; DMSO median 0, no signal -100. GFP signal change (wild-type ribosome), % (test concentration not listed). actives 1.6% (n = 350,000). AID 720706, 2013;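 active = significant combined selectivity score with lowered wild-type GFP, culture density cut under 30%, mutant RFP and density less affected; inactive = any of these conditions unmet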; note: one replicate is shown; some compounds called inactive have numbers as strong as hits
Calb FLC: C. albicans growth inhibition with fluconazole, primary screen, CaCi-2 strain, Alamar Blue fluorescence | C. albicans CaCi-2 (fluconazole-resistant clinical isolate) + fluconazole, 48 h | growth inhibition, % (concentration not given with the values) | actives 0.57% (n = 300,000) | AID 1979, 2009;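 active = most replicates above 75%; inconclusive = exactly half above 75%; inactive = most below 75%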;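 note: all wells also contain fluconazole at 8 µg/ml as a sub-toxic cotreatment; 0% = median of DMSO wells and 100% = median of geldanamycin control wells; wells of about 8 µL received 7.5 nL stock; the first replicate is given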
MLL AF4-AF9 inh: inhibitors of AF4 peptide binding to AF9, primary screen, biochemical, AlphaScreen, biotin-AF4 peptide, FLAG-AF9, single point | actives 0.47% (n = 350,000) | AID 651704, 2012 | inhibition, % at 10 µM | Protein AF-9 (Homo sapiens), P42568;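 active = every replicate reaching a set inhibition limit, whatever the replicate mean, cut at about 25% in these data; inconclusive = mean inhibition reaches that limit but some replicates miss it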;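 note: 0% = plate neutral control median and 100% = total signal loss; the record names both 10 and 1 µM as test concentration; the first replicate is given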
Target sequence (P42568 whole entry, looked up): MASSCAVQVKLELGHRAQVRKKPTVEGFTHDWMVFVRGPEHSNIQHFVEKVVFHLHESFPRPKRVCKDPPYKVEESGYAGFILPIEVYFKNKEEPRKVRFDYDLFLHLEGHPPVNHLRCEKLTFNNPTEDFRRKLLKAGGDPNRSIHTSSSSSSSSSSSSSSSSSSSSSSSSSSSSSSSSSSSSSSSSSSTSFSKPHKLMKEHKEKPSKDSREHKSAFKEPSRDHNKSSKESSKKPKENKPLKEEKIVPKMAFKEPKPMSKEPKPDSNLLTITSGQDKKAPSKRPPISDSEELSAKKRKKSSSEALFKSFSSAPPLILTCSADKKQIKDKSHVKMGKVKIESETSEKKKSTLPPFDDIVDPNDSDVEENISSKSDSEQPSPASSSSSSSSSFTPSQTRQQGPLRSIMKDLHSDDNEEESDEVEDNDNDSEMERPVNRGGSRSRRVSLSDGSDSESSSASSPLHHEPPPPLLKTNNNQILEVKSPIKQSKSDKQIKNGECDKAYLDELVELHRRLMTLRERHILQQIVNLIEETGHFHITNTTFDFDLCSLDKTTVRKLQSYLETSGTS
A1 inh: caspase 3/7 activation in MEF A1-2A-BIM cells, primary screen, A1 inhibitor project, cell-based, luminescence, HTS | caspase activation, % (test concentration not listed) | actives 0.066% (n = 330,000) | Caspase-Glo 3/7 luminescence, 3 h; percent of clofoctol response, vehicle zero | AID 2462, 2010;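 active = over half of replicate activation scores above 10%, or exactly half above 10 with the replicate mean above 10; inconclusive = replicate mean below 10 yet half the replicates above 10; inactive = over half of replicates below 10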;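 note: wells of about 30 µL received 50 nL stock; many hits fall short of the cut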
RanGTP-Imp inh: inhibitors of RanGTP-importin-beta interaction, primary screen, biochemical, FRET, CFP-Ran, YFP-importin-beta, homogeneous | Ran GTPase (GTP-bound) - importin-beta complex | actives 1.1% (n = 300,000) | cell-free CFP-Ran/YFP-importin-beta FRET ratio | inhibition, % (no concentration beside the values);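 active = most replicates above 15%; inconclusive = exactly half above 15%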;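 note: 0% = DMSO wells and 100% = Ran loaded with GDP instead of GTP; wells of about 40 µL received 100 nL stock; the first replicate is given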
Beta cell apopt: inhibitors of cytokine-induced beta cell apoptosis, primary screen, luminescence; INS-1E cytokine-induced death, ATP luminescence, 48 h; percent of positive-control rescue, neutral wells zero; protection from apoptosis, % (concentration not given with the values); actives 0.8% (n = 300,000);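 active = all replicates at 75% or more, or half of them and the mean; inconclusive = half reach 75% but not the mean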;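 note: 0% = cytokine-treated negative control wells and 100% = positive control rescue; higher means more ATP so stronger rescue from cytokine killing; wells of about 40 µL received 100 nL stock; the first replicate is given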
Vif A3G: inhibitors of Vif binding to APOBEC3G peptide, primary screen, biochemical, TR-FRET, GST-Vif 1-94, biotin-A3G peptide, dose response retest (AID 1117319); Virion infectivity factor (Human immunodeficiency virus type 1 group M subtype B (isolate …; actives 0.57% (n = 260,000); inhibition, %; hits with a dose series show IC50 in µM; TR-FRET GST-Vif / biotin-A3G peptide binding; higher % means a stronger effect; test concentration not given here; strong numbers were not always called active;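 active = above the screen mean plus three standard deviations and confirmed in dose response; inconclusive = results disagree or hit not tested in dose response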;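 note: Vif residues 1-94 fused to GST binding biotinylated APOBEC3G peptide 110-148; 0% = full assay without inhibitor and 100% = GST in place of GST-Vif; retest series ran down from 100 µM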
Ecoli rRNA inh OD600: further read-out of Ecoli rRNA inh, marked with its call; OD600 change, %; measured here: OD600 growth;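 optical density of the mix in the first replicate; 0 = DMSO median and -100 = no signal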
Ecoli rRNA inh RFP: recorded beside Ecoli rRNA inh, whose call it bears; RFP signal change, %; measured here: RFP humanized mutant strains;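 first replicate; 0 = DMSO median and -100 = no signal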
Active calls of the source: *; u = inconclusive; x = not tested or not shown. Some of the compounds tested; count on the stated rates, not on these rows.

SMILES	T cruzi repl	Ecoli rRNA inh	Ecoli rRNA inh OD600	Ecoli rRNA inh RFP	Calb FLC	MLL AF4-AF9 inh	A1 inh	RanGTP-Imp inh	Beta cell apopt	Vif A3G
O=C(O)c1cccc2sc3cc(Cl)ccc3c(=O)c12	x	-3	-5	-5.7	x	-0.2	-0.7	x	3	x
Cc1nn(-c2cccc(Cl)c2)c(Cl)c1/C=N/NC(=O)c1cccnc1	-1	-8	-11	-1.0	11	1.5	u	-0.6	-12	10%
CCCCSc1ncc(C(=O)OCC)c(N)n1	-11	x	x	x	-9	x	-1.8	6.2	-3	-1%
O=C1CC(c2cccc(Cl)c2)CC(O)=C1C=NCCCO (stereo not given)	-3	x	x	x	18	x	-1.5	9.7	0	3%
CC(=C1C(=O)c2ccccc2C1=O)N1CCN(c2ccccn2)CC1	-8	x	x	x	-4	x	-0.3	u	0	-3%
CS(=O)(=O)Nc1ccc(C(=O)NCCSC2CCCCC2)cc1	-13	x	x	x	-3	8.2	-0.1	-2.4	-1	-1%
CCn1c(C)c(C)c2cc(C(=O)Nc3cccc(Cl)c3)ccc21	44	x	x	x	10	x	-1.3	-1.0	4	-1%
CC(NC(=O)C1CCCCC1)c1ccc2c(c1)OCCO2 (stereo not given)	-9	x	x	x	6	x	0.9	5.6	-1	-1%
COc1ccc(Cc2noc(CN3CCNC(=O)CC3)n2)cc1OC	-2	9	8	1.9	-12	-3.6	0.6	2.5	-6	3%
COc1ccc(O)c(C2=Nc3ccccc3N=C(c3ccco3)C2)c1	12	x	x	x	0	x	0.1	1.0	3	-5%
C(=N\Nc1nc(-c2ccccc2)cs1)/c1cccs1	9	x	x	x	0	x	-0.3	-2.8	2	7%
CC1CC(C)(C)CC2(C1)NC(=O)N(CC(=O)N(C)Cc1nc3ccccc3c(=O)[nH]1)C2=O (stereo not given)	x	-2	-5	-0.1	x	-4.8	0.5	x	-5	x
CC1CN(C(=S)SCCN2Cc3ccccc3C2=O)CC(C)O1 (stereo not given)	4	-4	-9	-2.2	19	3.3	-0.1	4.6	2	x
COc1ccc(CNC(=O)CN2CCC(C(=O)c3ccc(OC)cc3)CC2)cc1	34	x	x	x	-27	x	0.0	u	5	0%
COc1ccc(CCNS(=O)(=O)c2cccs2)cc1	-1	x	x	x	-3	x	-0.8	1.7	-8	29%
NC(=O)c1ccc(NC(=O)COC(=O)c2ccc(Cl)nc2)cc1	x	2	-3	-1.1	x	0.0	-0.6	x	-3	-15%
Cc1ccc(S(=O)(=O)CCC(=O)NCc2ccccc2)cc1	-5	2	10	-7.1	-3	2.1	-0.2	-1.4	-9	x
CCOc1ccccc1NC(=O)COC(=O)c1cccc(-c2ccc(OC(C)=O)cc2)c1	5	x	x	x	-4	5.6	-0.2	-1.4	-5	x
O=C(CC1C(=O)NCCN1C(=O)c1ccc(F)cc1)OCc1ccccc1 (stereo not given)	11	x	x	x	1	x	1.0	3.3	0	0%
CCC(c1nnc(SCC(=O)Nc2cc(C)on2)o1)N(C)C (stereo not given)	x	x	x	x	x	-1.1	0.1	x	-8	-4%
c1ccc2sc(NC3=NCN(CCN4CCOCC4)CN3)nc2c1	44	5	-2	-4.8	-16	0.5	0.0	28*	-2	u
Cc1ccc(CNS(=O)(=O)c2ccc(-n3cnnn3)c(C)c2)cc1	-7	-3	2	0.8	6	-1.1	0.9	-4.1	-1	u
CC1=CC(C)(C)N2C(=O)C3(C(C#N)=C(N)Oc4cc(O)ccc43)c3c(C)c(C)cc1c32 (stereo not given)	21	-55	-74	-32	8	9.3	-0.8	1.7	-4	27%
Fc1ccc(N/N=C(/c2ccccc2)c2ccccn2)cc1	3	x	x	x	-3	x	-1.3	-4.7	-8	2%
CC(=O)Nc1ccc(S(=O)(=O)Nc2ccccc2N2CCOCC2)cc1	x	-2	0	-3.5	x	2.6	-2.0	x	-3	14%
O=C(N/N=C/c1cccs1)c1ccc2ncccc2c1	11	-5	-4	-1.6	8	0.8	-0.3	1.4	-3	17%
COc1ccc(C(=O)NC(C)c2nnc(SCC(=O)Nc3nc(C)cs3)n2C)cc1 (stereo not given)	-5	x	x	x	-8	x	-0.1	-0.2	-3	6%
COc1ccc(C(=O)c2cc3c(cc2[N+](=O)[O-])OCCO3)cc1	-5	0	-3	0.5	49	4.5	0.0	-1.5	-2	21%
COc1cccc(NC(=O)C2CC(=O)N(Cc3ccco3)C2)c1 (stereo not given)	x	3	14	2.1	x	2.2	1.4	x	6	-17%
CCOc1ccc(Nc2nnc(Cc3ccc(OC)cc3)c(=O)[nH]2)cc1	-13	-6	3	-3.2	3	-2.2	0.2	-0.2	-9	u
NNc1nc(-c2ccccc2)cc(-c2ccccc2)n1	4	-6	-12	16	59	0.7	-0.1	3.5	37	-3%
Cn1c(=NC(=O)CSCC(=O)N2CCOCC2)sc2ccccc21	12	x	x	x	-6	x	-0.2	2.0	-2	0%
CNC(=S)Nc1cc(C(F)(F)F)ccc1Cl	-2	6	2	-1.1	-1	-2.0	-0.7	-1.9	-4	-5%
COC(=O)c1c(C#N)c(N)nc2c1CCCC2	-15	x	x	x	22	x	0.2	2.2	1	-11%
O=c1cc(O)c(-c2cccc(Cl)c2)c(Cl)[nH]1	-9	x	x	x	-1	x	0.7	6.0	-3	10%
O=C(C1=C(O)C(=O)N(CCN2CCOCC2)C1c1ccc(Br)cc1)c1cc2ccccc2o1 (stereo not given)	14	2	-12	4.5	0	-2.5	0.1	-0.1	5	x
C/C(=N\Nc1ccc(C#N)cc1[N+](=O)[O-])c1ccc(C)o1	0	x	x	x	-40	-5.1	-0.2	3.4	3	2%
CCN1CCN(S(=O)(=O)c2ccc(C(=O)Nc3ccccc3)cc2)CC1	-16	7	7	-2.9	1	-4.5	-0.4	-2.3	x	u
CC(C)CCOCC(=O)Oc1ccccc1C(=O)O	-6	x	x	x	1	x	0.2	2.5	-7	3%
Cc1ccc(CNC(=O)c2nnc(CS(=O)(=O)c3ccccc3)o2)cc1	0	-5	2	-2.0	-1	-4.1	-1.1	-1.2	-7	x
Cn1ccnc1C(O)(c1ccccc1)c1nccn1C	0	13	8	6.2	0	-21	0.4	7.6	-8	2%
COc1ccc(CCNC(=O)CCOc2ccc(C)cc2)cc1OC	-10	0	-2	-0.5	-11	-17	6.1*	1.5	-5	0%
O=C1NC(=O)[C@@H]2C3c4ccccc4C=CN3[C@H](C(=O)c3cccs3)[C@H]12 (stereo not given in full)	0	x	x	x	-1	x	-0.8	-4.5	-8	11%
Cc1c(OCC(=O)N(C)C)ccc2c3c(c(=O)oc12)CCCCC3	9	-5	-14	-7.2	-5	-1.3	0.3	-0.3	-9	-13%
CCOc1ccccc1-c1nc(SCC(=O)O)n[nH]1	3	x	x	x	0	x	1.0	3.8	x	-2%
CCC(CC)c1nnc(NC(=O)c2ccc(N3CCCCC3)c([N+](=O)[O-])c2)s1	20	13	-1	-1.8	1	7.8	0.3	3.0	5	13%
COc1cccc(NC(=O)CC2C(=O)NCCN2C(=S)Nc2ccc(F)cc2)c1 (stereo not given)	0	0	-5	-0.6	-9	-15	-0.1	0.7	-8	7%
CC(C)CCNC(=O)CSc1nc2ccccc2c(=O)[nH]1	-7	x	x	x	14	x	-0.4	-0.6	-4	-18%
COc1ccc(NC(=O)CCCNC(=O)c2ccc(Cl)cc2)c(OC)c1	-3	-3	-3	-8.4	-1	-4.1	0.6	-4.2	-4	-1%
O=Cc1sc([O-])nc1-[n+]1ccc2ccccc2c1	-11	x	x	x	0	x	0.2	28*	6	2%
CC(C)Cn1c(CCCNC(=O)c2ccc(F)cc2)nc2ccccc21	-2	-7	-9	-5.6	-1	-5.1	0.5	-3.3	7	1%
CC(=O)c1cccc(NC(=O)C2CC(=O)N(c3cccc(C)c3C)C2)c1 (stereo not given)	-15	x	x	x	-4	x	0.0	-1.1	2	12%
COc1ccc(/C(N)=N/OC(=O)CSc2ccc(C)cc2)cc1	10	x	x	x	26	x	-1.8	-0.2	-6	4%
O=S1(=O)CCN(Cc2ccc(Cl)c(C(F)(F)F)c2)CC1	-5	x	x	x	7	x	0.9	u	-2	-4%
COc1ccccc1NC(=O)c1cnc2c(-c3ccccc3)c(C)nn2c1C	-8	-16	-7	1.0	26	-3.9	-0.1	1.1	-2	2%
Cc1cc(C)cc(-n2c(O)c(C=NC3CCS(=O)(=O)C3)c3ccccc3c2=O)c1 (stereo not given)	-12	x	x	x	-4	x	0.3	-0.9	-6	3%
Nc1c(N(CCO)C(=O)C2CCCCC2)c(=O)[nH]c(=O)n1Cc1ccccc1	-5	4	-2	0.0	7	3.6	-0.5	3.6	-2	x
Cc1cc2c(c(=O)o1)C(CC(C)C)C(C#N)=C(N)O2 (stereo not given)	-2	x	x	x	-8	x	0.5	0.8	-3	11%
CC(CCc1ccccc1)NCC#N (stereo not given)	5	18	10	-4.3	-2	5.5	0.2	11	-1	-9%
CCC1(C)Cc2c(sc3[nH]c(=O)[nH]c(=O)c23)CS1 (stereo not given)	-11	x	x	x	34	x	0.5	5.9	-1	0%
Following part.
SMILES	T cruzi repl	Ecoli rRNA inh	Ecoli rRNA inh OD600	Ecoli rRNA inh RFP	Calb FLC	MLL AF4-AF9 inh	A1 inh	RanGTP-Imp inh	Beta cell apopt	Vif A3G
COc1cc(/C=N/OCC(=O)NC2CCCCC2C)ccc1OCc1ccc(Cl)cc1 (stereo not given)	20	x	x	x	14	x	-0.9	u	7	x
CCOC(=O)C1CCN(c2c(N3CCCC(C(=O)OCC)C3)c(=O)c2=O)CC1 (stereo not given)	0	0	6	-2.6	-9	-0.4	0.3	-0.7	x	-7%
O=C1c2ccccc2C(=O)N1Cc1nc2ccccc2c(=O)n1CCCN1CCOCC1	-19	x	x	x	-9	x	0.3	4.8	-6	-5%
CS(=O)(=O)N(CC(=O)Nc1ccc2c(c1)OCCO2)Cc1ccccc1	-12	x	x	x	3	x	-0.3	0.6	-3	24%
c1ccc(N2CCN(c3nc(-c4ccccn4)nc4ccccc34)CC2)cc1	49	-54	-79	-33	18	x	0.7	6.5	93*	-1%
CNC(CC(C)C)C(=O)NC1C(=O)NC(CC(N)=O)C(=O)NC2C(=O)NC3C(=O)NC(C(=O)NC(C(=O)O)c4cc(O)cc(O)c4-c4cc3ccc4O)C(O)c3ccc(c(Cl)c3)Oc3cc2cc(c3OC2OC(CO)C(O)C(O)C2OC2CC(C)(N)C(O)C(C)O2)Oc2ccc(cc2Cl)C1O (stereo not given)	11	x	x	x	-1	8.6	0.8	-1.2	x	x
